High-throughput results: PubChem BioAssay, several laboratories
T cruzi inh = T. cruzi replication inhibition; T. cruzi beta-gal in NIH3T3, luminescence, 90 h; 300,000 compounds, 1.4% hits; inhibition, % (concentration not given with the values);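 active = mean inhibition across valid replicates above about 55%, limit read from the data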;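 also: signal also drops with host cell toxicity which is not excluded here; 0% = plate median of DMSO wells and 100% = zero luminescence signal; higher percent means less beta-gal luminescence so fewer parasites; stock transfer was 50 nL into about 50 µL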
A1 inh = inhibitors of the anti-apoptotic protein A1, read as caspase activation; MEF A1-2A-BIM cells, Caspase-Glo 3/7 luminescence, 3 h; percent of clofoctol response, vehicle zero; caspase activation, % (concentration not given with the values); 330,000 compounds, 0.066% hits; AID 2462;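 active = over half of replicate activation scores above 10%, or exactly half above 10 with the replicate mean above 10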;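 also: wells of about 30 µL received 50 nL stock; many hits fall short of the cut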
E coli growth = E. coli growth inhibition; Escherichia coli growth, OD600, 23 h; active compounds read low; OD600 absorbance (no concentration beside the values); 330,000 compounds, 0.21% hits;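 active = OD600 absorbance below the run mean of sample wells minus 3.6 SD, in any replicate, cut at about 0.56 in these data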;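 also: stock transfer was 300 nL into about 60 µL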
UCH37 inh = inhibitors of human deubiquitinating enzyme UCH37; Q9Y5K5; purified proteasome/UCH37, Ub-AMC cleavage fluorescence; inhibition, % (test concentration not listed); 330,000 compounds, 0.33% hits; AID 588478;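 active = mean of two replicates above 20%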;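 also: 0% = compound-free wells with enzyme and 100% = wells lacking proteasome; stock transfer was 100 nL into about 20 µL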
Target sequence (Q9Y5K5 whole entry, looked up): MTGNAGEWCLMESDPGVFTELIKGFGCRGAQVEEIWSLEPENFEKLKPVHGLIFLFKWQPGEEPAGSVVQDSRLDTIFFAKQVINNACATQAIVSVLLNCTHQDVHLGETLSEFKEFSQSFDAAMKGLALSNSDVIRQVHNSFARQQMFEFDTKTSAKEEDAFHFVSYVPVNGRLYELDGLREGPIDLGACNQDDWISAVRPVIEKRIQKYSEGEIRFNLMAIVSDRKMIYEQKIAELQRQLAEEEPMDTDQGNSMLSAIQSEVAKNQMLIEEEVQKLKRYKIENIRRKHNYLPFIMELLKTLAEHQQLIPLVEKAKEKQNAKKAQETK
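assay system = human UCH37 enzyme supplied as purified proteasome complex | amount = proteasome at 0.15 nM in the dispensed enzyme solution | schedule = 30 min compound-proteasome preincubation then 25 min substrate reaction, room temperature | measured by = fluorescence, ex 355 nm, em 460 nm | benchmarks = no-proteasome wells (full inhibition) and compound-free wells (no inhibition)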
FGF22 binding = shifts melting point of recombinant human FGF22; calls only at 9.99 µM; recombinant FGF22 thermal shift, SYPRO orange fluorescence; percent of sucrose octasulfate shift, DMSO zero; AID 651658; 340,000 compounds, 1.5% hits; Q9HCT0;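 active = melting point raised past a set limit in the mean and every replicate; three in four hits are not shown here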
Target sequence (Q9HCT0 whole entry, looked up): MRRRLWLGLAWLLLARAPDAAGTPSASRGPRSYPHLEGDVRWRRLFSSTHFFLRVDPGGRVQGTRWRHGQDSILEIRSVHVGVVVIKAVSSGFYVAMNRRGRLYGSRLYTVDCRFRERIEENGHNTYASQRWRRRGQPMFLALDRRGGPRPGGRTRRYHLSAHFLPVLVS
Beta cell apopt = beta cell apoptosis inhibition | INS-1E cytokine-induced death, ATP luminescence, 48 h; percent of positive-control rescue, neutral wells zero | protection from apoptosis, % (no concentration beside the values) | 300,000 compounds, 0.8% hits | AID 435005;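 active = all replicates at 75% or more, or half of them and the mean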;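 also: 0% = cytokine-treated negative control wells and 100% = positive control rescue; higher means more ATP so stronger rescue from cytokine killing; wells of about 40 µL received 100 nL stock; the first replicate is given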
rRNA inh HTS = inhibitors of bacterial rRNA selective over humanized ribosomes; E. coli WT GFP vs humanized-ribosome RFP mutants, fluorescence, 24 h; active compounds read low; DMSO median 0, no signal -100; GFP signal change (wild-type ribosome), % (concentration not given with the values); 350,000 compounds, 1.6% hits; AID 720706;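 active = significant combined selectivity score with lowered wild-type GFP, culture density cut under 30%, mutant RFP and density less affected; inactive = any of these conditions unmet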; also: one replicate is shown; some compounds called inactive have numbers as strong as hits
MLL AF4-AF9 inh = MLL-AF4/AF9 protein interaction inhibition. P42568. AlphaScreen, biotin-AF4 peptide binding to FLAG-AF9. inhibition, % at 10 µM. 350,000 compounds, 0.47% hits. AID 651704;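 active = every replicate reaching a set inhibition limit, whatever the replicate mean, cut at about 25% in these data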;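 also: 0% = plate neutral control median and 100% = total signal loss; the record names both 10 and 1 µM as test concentration; the first replicate is given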
Target sequence (P42568 whole entry, looked up): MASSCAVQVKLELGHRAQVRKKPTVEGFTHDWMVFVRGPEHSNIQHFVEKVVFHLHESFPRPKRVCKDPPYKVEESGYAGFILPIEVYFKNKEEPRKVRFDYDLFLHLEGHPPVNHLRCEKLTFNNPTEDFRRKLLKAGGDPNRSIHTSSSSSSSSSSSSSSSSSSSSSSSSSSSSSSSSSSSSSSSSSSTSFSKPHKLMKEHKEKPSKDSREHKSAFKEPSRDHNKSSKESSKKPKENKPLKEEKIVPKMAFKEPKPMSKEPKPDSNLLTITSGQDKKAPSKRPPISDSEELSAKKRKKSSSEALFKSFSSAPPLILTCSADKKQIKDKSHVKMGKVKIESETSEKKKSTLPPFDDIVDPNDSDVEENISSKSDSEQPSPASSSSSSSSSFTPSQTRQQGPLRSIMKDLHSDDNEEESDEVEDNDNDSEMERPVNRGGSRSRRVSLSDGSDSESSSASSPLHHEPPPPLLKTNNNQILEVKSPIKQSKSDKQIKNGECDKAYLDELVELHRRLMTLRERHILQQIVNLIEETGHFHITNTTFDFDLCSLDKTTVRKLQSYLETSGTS
rRNA inh HTS OD600 = also measured in rRNA inh HTS; calls as there; OD600 change, %; measured here: OD600 growth;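 optical density of the mix in the first replicate; 0 = DMSO median and -100 = no signal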
rRNA inh HTS RFP = second read-out of rRNA inh HTS, no call of its own (marks repeat the call); RFP signal change, %; measured here: RFP humanized mutant strains;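 first replicate; 0 = DMSO median and -100 = no signal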
* hit, by the source's call; i = inactive; · = no result given.

SMILES	T cruzi inh	A1 inh	E coli growth	UCH37 inh	FGF22 binding	Beta cell apopt	rRNA inh HTS	rRNA inh HTS OD600	rRNA inh HTS RFP	MLL AF4-AF9 inh
O=C(CSc1nnnn1Cc1ccccc1)Nc1ccccc1	-1	-0.2	0.71	3.9	i	-2	-22	0	11	-36
CC(=O)N1C(c2ccccc2O)C[C@]2(C)CC(=O)NC12 (some centres undefined)	-10	0.2	0.69	1.6	i	-5	10	9	3.2	0.9
Cn1ccnc1SCC(=O)c1ccc(Cl)cc1	0	-1.3	0.68	4.1	i	-11	-32*	-21*	-3.8*	0.8
Cc1ccc(-c2nnc(-c3cc(C)on3)o2)cc1	-36	-4.0	0.62	3.2	i	-2	13	5	3.6	-9.0
CC1(C)CC(=O)N(c2ccc(Cl)c(Cl)c2)C(=O)C1	1	0.4	0.66	4.0	i	0	4	6	-1.1	-1.7
COc1ccccc1N1CCN(C(=O)C2CCN(C(=O)c3ccccc3Cl)CC2)CC1	-8	1.1	0.7	-0.5	i	3	2	1	-2.4	1.4
CCC1(CC)N([O-])C(C)=C(c2ccccc2)[N+]1=O	-4	0.0	0.75	2.7	·	-5	·	·	·	·
NC(=O)c1c(NC(NC(=O)c2ccco2)C(=O)c2ccc(Cl)cc2)sc2c1CCCC2 (centres undefined)	-12	-0.6	0.71	2.7	·	-8	·	·	·	·
Cc1cc(C)cc(OCC(=O)N(Cc2ccco2)c2c(N)n(Cc3ccccc3)c(=O)[nH]c2=O)c1	·	-0.6	0.72	-1.6	i	-6	4	1	3.8	1.8
COc1ccc(C)cc1NC(=O)CN1CCN(c2ccccc2F)CC1	·	-0.3	0.7	3.8	·	-7	·	·	·	·
O=C1c2oc3ccccc3c(=O)c2C(c2cccnc2)N1Cc1ccco1 (centres undefined)	-8	-0.1	0.67	4.4	·	-1	·	·	·	·
COc1ccccc1NC(=O)OCC#CCOC(=O)Nc1ccccc1OC	-11	0.5	0.65	2.5	i	-3	-5	-10	6.6	2.0
COc1ccc(-n2nc(N)c(C(N)=O)n2)cc1	-3	-1.9	0.71	i	i	-3	14	5	-1.5	-4.8
Cc1ccc(C(=O)COC(=O)C2CC(=O)N(c3nc(-c4ccccc4)cs3)C2)cc1 (centres undefined)	-5	-0.3	0.68	3.5	·	·	·	·	·	·
O=C(Oc1ccc2ccccc2c1Br)N1CCCCCC1	21	-0.4	0.7	6.5	·	9	·	·	·	·
COc1ccc(OC)c(N2C(N)=C(C#N)C(c3ccc(OC)c(O)c3)C3=C2CC(C)(C)CC3=O)c1 (centres undefined)	18	0.8	0.73	1.8	·	-3	·	·	·	·
Cc1cc(C)c(C)c(OCC(=O)N2CCOCC2)c1	15	-0.1	0.68	5.5	·	-3	·	·	·	·
O=C(NCc1ccccc1)C(c1ccc(F)cc1)N(Cc1cccs1)C(=O)c1cnccn1 (centres undefined)	12	0.2	0.71	0.3	·	-5	·	·	·	·
CCOC(=O)N1CCN(C(=O)CCCn2c(=S)[nH]c3ccsc3c2=O)CC1	3	-1.0	0.71	-0.1	i	2	-7	-9	-6.9	-9.5
Cn1c(=O)[nH]c(=O)c2c1nc(Br)n2Cc1ccccc1F	9	0.2	0.71	-0.6	·	-2	·	·	·	·
CCN(CC)C(=O)CCSc1nnc(-c2ccncc2)o1	10	1.1	0.69	1.8	i	-5	10	12	6.9	2.3
COc1cccc(C(C(=O)NCC2CCCO2)N(C(=O)Cn2nnc3ccccc32)c2ccccc2C(C)=O)c1OC (centres undefined)	12	0.6	0.68	0.3	i	5	4	7	0.1	1.1
COc1ccc(CNC(=S)N2CCN(S(=O)(=O)c3cccc(F)c3)CC2)cc1	-1	0.6	0.71	0.8	i	-4	3	1	-3.5	4.8
Cc1cc(Cl)ccc1OCC(=O)Nc1nc(-c2cccnc2)cs1	7	0.2	0.65	5.2	i	-3	8	6	-1.0	-4.1
COc1ccc(C(=O)Nc2cc(C)on2)cc1	-5	·	0.61	4.3	·	-1	·	·	·	·
Cc1ccc(NC(=O)COC(=O)C2CC3C=CC2C3)cc1S(=O)(=O)N1CCCCC1 (centres undefined)	0	1.2	0.67	1.3	i	-3	-26*	-17*	-0.5*	-22
Cc1nc2ccccc2c(C)c1C(=O)c1ccccc1	-2	0.6	0.65	0.9	i	-5	-30	-38	-12	1.6
Cc1ccc2nc(SCC(=O)c3c(C)[nH]c4ccccc34)[nH]c2c1	17	1.0	0.69	5.9	·	2	·	·	·	·
CCC(CO)NC1=CC(=O)CCC1 (centres undefined)	-16	1.0	0.68	-1.6	i	3	14	12	3.5	-1.2
Cc1nn2c(NCCCN3CCOCC3)c3c(nc2c1-c1ccccc1)CCC3	25	1.1	0.69	-6.2	·	8	·	·	·	·
Brc1ccccc1OCCOc1cccc2cccnc12	14	-0.8	0.71	0.5	i	5	-2	-4	-2.0	-0.8
COCCn1c(C)cc(/C=C2/NC(=O)N(c3cccc(Cl)c3)C2=O)c1C	10	-1.2	0.75	-15	i	-3	6	-1	3.4	1.1
O=C(NCC(c1cccnc1)N1CCOCC1)c1ccco1 (centres undefined)	8	-0.5	0.69	2.0	·	-7	·	·	·	·
CCOC(=O)N1CCN(C(=O)CCc2ccc(S(=O)(=O)NC(C)(C)C)cc2)CC1	-9	-0.3	0.68	1.3	i	-6	3	2	-2.4	1.1
Cc1cccc(NC(=S)N2CCCCC2c2cccnc2)c1C (centres undefined)	16	1.3	0.7	1.9	i	-3	9	3	-11	0.0
CC(=O)Nc1ccc(C(=O)OCC(=O)NC2CCCCCCC2)cc1	-7	-0.1	0.66	1.9	i	-1	-7	-8	3.8	-2.7
O=[N+]([O-])c1cccc(-c2nc3ccccc3s/c2=N/O)c1	3	-0.4	·	·	i	·	2	-4	-0.1	7.0
CN(C)c1ccc(C(=O)Nc2cc(C(F)(F)F)ccc2-n2cncn2)cc1	43	-1.5	0.72	-2.6	·	-2	·	·	·	·
COc1cccc(C(C(=O)NCC2CCCO2)N(CC2CCCO2)C(=O)CN2C(=O)c3ccccc3S2(=O)=O)c1 (centres undefined)	-9	0.8	0.69	2.7	i	1	11	10	-3.6	-1.4
O=C(Cn1cnc2c(nnn2-c2ccc(F)cc2)c1=O)N1CCCc2ccccc21	9	-0.2	0.68	6.4	·	-3	·	·	·	·
O=C(O)COn1c(-c2ccccc2)nc2ccc(Cl)cc21	2	-2.3	0.58	0.2	i	0	6	3	-0.9	0.3
Cc1ccc(NS(=O)(=O)c2c(C(=O)N3CCCCCC3)c(C)n(C)c2C)c(C)c1	10	0.2	0.64	1.4	i	-1	-2	-6	1.7	1.0
O=C(CSc1nc2ccccc2s1)Nc1ccc(C(=O)O)cc1	-1	-0.9	0.71	3.1	i	-5	-6	-4	-8.0	-11
NC(=O)c1ccc(C(F)(F)F)n(Cc2ccc(F)c(F)c2)c1=O	6	-0.2	0.7	2.4	i	3	-3	-1	-1.4	0.2
CCOc1ccc(-c2csc(NC(=O)C3CCCO3)n2)cc1 (centres undefined)	-1	-0.2	0.7	0.4	·	6	·	·	·	·

6 of these compounds, reformatted.
Each structure is followed by: T cruzi inh	A1 inh	E coli growth	UCH37 inh	FGF22 binding	Beta cell apopt	rRNA inh HTS	rRNA inh HTS OD600	rRNA inh HTS RFP	MLL AF4-AF9 inh
COc1ccc(OC)c(N2C(N)=C(C#N)C(c3ccc(OC)c(O)c3)C3=C2CC(C)(C)CC3=O)c1 (centres undefined)
→ 18	0.8	0.73	1.8	·	-3	·	·	·	·
COc1ccc(C(=O)Nc2cc(C)on2)cc1
→ -5	·	0.61	4.3	·	-1	·	·	·	·
O=C(Cn1cnc2c(nnn2-c2ccc(F)cc2)c1=O)N1CCCc2ccccc21
→ 9	-0.2	0.68	6.4	·	-3	·	·	·	·
Cc1ccc(NS(=O)(=O)c2c(C(=O)N3CCCCCC3)c(C)n(C)c2C)c(C)c1
→ 10	0.2	0.64	1.4	i	-1	-2	-6	1.7	1.0
O=C(NCC(c1cccnc1)N1CCOCC1)c1ccco1 (centres undefined)
→ 8	-0.5	0.69	2.0	·	-7	·	·	·	·
NC(=O)c1ccc(C(F)(F)F)n(Cc2ccc(F)c(F)c2)c1=O
→ 6	-0.2	0.7	2.4	i	3	-3	-1	-1.4	0.2

Next part
SMILES	T cruzi inh	A1 inh	E coli growth	UCH37 inh	FGF22 binding	Beta cell apopt	rRNA inh HTS	rRNA inh HTS OD600	rRNA inh HTS RFP	MLL AF4-AF9 inh
Cc1ccc(-c2ccc(/C=N/NC(=O)Cc3nnc(N)s3)o2)cc1Cl	-4	0.0	·	·	i	1	-5	-5	11	7.4
Cc1c(CC(=O)O)c(=O)oc2c(C)c(OCc3ccc(F)cc3Cl)ccc12	-6	0.0	0.69	-62	i	·	4	6	0.8	-6.1
CCCCNC(=O)c1c(O)c2cccc3c2n(c1=O)CCC3	21	1.0	0.73	1.8	·	0	·	·	·	·
COc1ccc(C(NC(=O)CNC(C)=O)C(=O)Nc2ccc3c(c2)OCCO3)cc1 (centres undefined)	·	0.2	0.81	5.0	·	-17	·	·	·	·
c1ccc(OCc2nc3ccccc3s2)cc1	-13	-11	0.69	1.8	·	-3	·	·	·	·
O=C(N[C@@H](Cc1ccccc1)C(=O)OCc1ccccc1)c1nc[nH]c1C(=O)N[C@@H](Cc1ccccc1)C(=O)OCc1ccccc1	-16	-0.5	·	32*	i	-1	9	16	-0.7	2.6
COc1ccc(OCCn2c(N)nc3ccccc32)cc1	14	-0.3	0.56	1.7	i	11	-23	-35	1.9	4.8
COc1ccc(Oc2cc(C)nc(Cl)n2)nn1	-6	0.1	0.62	0.5	i	-5	9	9	11	-4.1
COc1cc2c(cc1O)CCN(C(=O)CSc1nncn1C)[C@@H]2C	·	0.2	0.66	1.6	i	-9	2	1	1.2	·
CC1CCCC(NC(=O)C2CCN(S(=O)(=O)c3cnc[nH]3)CC2)C1C (centres undefined)	-17	1.9	0.71	-1.9	i	-1	3	7	1.2	0.1
O=C(Nc1cccc(F)c1)N1CCN(C/C=C/c2ccccc2)CC1	10	-0.7	0.64	1.3	·	4	·	·	·	·
Cc1ccccc1NC(=O)NC1(C(=O)N2CCC(C(N)=O)CC2)CCCCC1	-5	0.0	0.66	3.0	i	·	2	8	-0.9	-3.0
O=C(CCS(=O)(=O)c1cccc2nsnc12)N1CC(=O)N(CCc2ccccc2)C(=O)C1	1	-0.1	0.63	1.3	·	-6	·	·	·	·
c1cc2c(cc1-c1[nH]ncc1CN1CC3C[C@@H]4CC1C[C@H](C3)C4)OCO2	12	0.5	0.69	0.3	i	-8	10	0	0.6	0.8
Cc1cc(-n2c(SCC(=O)NCCC3=CCCCC3)nc3n[nH]c(C)c3c2=N)ccc1Cl	11	0.9	0.71	-4.6	i	37	12	15	4.1	-0.6

Not all compounds are listed, so the mix of outcomes need not match the whole.
